High-throughput results deposited in PubChem BioAssay by National Center for Advancing Translational Sciences (NCATS).
hNpr1 antagonist – blocks ANP-stimulated signaling of human Npr1 receptor. P16066. actives 1.6% (n = 76,000). HEK293 hNpr1 GloSensor cGMP, ANP-stimulated luminescence. Potency, µM (doses to about 46.3 µM), without a hit: top-dose activity change, negative = inhibition, usual class: inhibitors. AID 1347048; active = well fitted inhibition curve with a large enough effect; inconclusive = small, poorly fitted or top-dose-only effect; inactive = no such curve, though single readings can be large or run the other way;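 note: nearly all actives have a fitted effect of over 60% in size; nearly all hits also lower the signal before the agonist is added; a reference antagonist and vehicle were the controls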
Target sequence (P16066 whole entry, looked up): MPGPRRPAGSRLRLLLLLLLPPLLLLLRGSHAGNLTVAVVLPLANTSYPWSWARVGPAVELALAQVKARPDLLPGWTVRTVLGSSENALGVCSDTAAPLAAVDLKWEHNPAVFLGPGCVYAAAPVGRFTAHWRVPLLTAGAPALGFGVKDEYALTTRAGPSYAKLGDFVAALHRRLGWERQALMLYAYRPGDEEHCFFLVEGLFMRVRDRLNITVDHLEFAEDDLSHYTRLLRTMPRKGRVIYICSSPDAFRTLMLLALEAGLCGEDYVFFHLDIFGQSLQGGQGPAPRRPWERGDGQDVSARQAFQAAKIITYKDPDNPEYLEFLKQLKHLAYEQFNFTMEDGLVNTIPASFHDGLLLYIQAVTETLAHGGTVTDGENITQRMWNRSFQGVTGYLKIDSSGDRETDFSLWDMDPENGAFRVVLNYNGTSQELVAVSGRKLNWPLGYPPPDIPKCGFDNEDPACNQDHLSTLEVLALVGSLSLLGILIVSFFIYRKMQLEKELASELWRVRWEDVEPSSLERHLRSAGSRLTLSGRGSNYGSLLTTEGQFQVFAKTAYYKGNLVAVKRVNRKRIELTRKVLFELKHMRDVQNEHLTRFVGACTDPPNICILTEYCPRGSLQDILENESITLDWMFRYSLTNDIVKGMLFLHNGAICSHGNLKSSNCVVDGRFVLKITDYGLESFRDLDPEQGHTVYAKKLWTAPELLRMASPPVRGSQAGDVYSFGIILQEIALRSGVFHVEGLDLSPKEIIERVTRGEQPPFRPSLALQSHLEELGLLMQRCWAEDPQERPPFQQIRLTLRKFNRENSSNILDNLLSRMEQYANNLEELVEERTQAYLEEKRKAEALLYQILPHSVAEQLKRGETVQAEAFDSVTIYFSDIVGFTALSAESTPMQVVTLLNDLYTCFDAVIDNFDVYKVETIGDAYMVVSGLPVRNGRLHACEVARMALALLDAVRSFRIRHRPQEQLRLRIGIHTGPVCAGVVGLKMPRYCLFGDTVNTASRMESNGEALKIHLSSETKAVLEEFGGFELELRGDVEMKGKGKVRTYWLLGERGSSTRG
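HEK293 cells stably expressing human Npr1 and cGMP GloSensor pGS-40F, loaded 2 h with 2% GloSensor reagent, given compound 30 min at room temperature. Luminescence read before and 20 min after 0.1 nM hNppA.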
The depositor's hits bear a star; ? = inconclusive; & = joins results of further samples; [ ] = dose if it differs, or a comment. % is set by controls: 0 for no effect and ±100 for the full control effect; potency is the fitted concentration of half-maximal effect. Only part of the results is shown (hit frequency here may not be typical).

SMILES	hNpr1 antagonist
CC[C@H]1CN(C(=O)Nc2cccc(C(F)(F)F)c2)CC[C@H]1CC(=O)O	0%[70.6 µM]
COc1cccc(C(=O)N2CCC(N(Cc3ccccc3)C3CCOCC3)CC2)c1	-1%
Cc1ccc2[nH]c(CN3CCN(CC4CCN(C)CC4)CC3)cc(=O)c2c1	1%
COc1ccc(-c2noc(C(=O)O)c2[C@@H](C)NC(=O)c2cc(C)n(C)n2)cc1	2%[70.6 µM]
Cc1nc(N2CCC(NC(=O)c3ccc4c(c3)OCO4)CC2)cc(C(F)(F)F)n1	?
O=C(NC1CCCN(c2nc3ncccc3o2)C1)c1ccccc1 (configuration not stated)	0%[70.6 µM]
CCNC(=O)c1n[nH]c2c1CN(C(=O)c1cccc(Br)c1)CC2	-2%
CC(C)NC(=O)N1CCN(C(=O)N2CCOCC2)[C@@H](C(=O)N[C@H](Cc2c[nH]c3ccccc23)C(N)=O)C1	0%
CCN1CCC(CC(=O)N2CCCC3(C=Cc4ccccc4O3)CC2)CC1 (configuration not stated)	6%
Cc1cccc(OCCc2noc(C3CCN(C(=O)C4CCCC4)C3)n2)c1 (configuration not stated)	-13%
N#Cc1cccc(-c2cn3c(n2)N(C(=O)c2cccnc2)CCC3)c1	-10%
CN(C)C[C@@H]1CN(C2CCOCC2)C[C@H]1NC(=O)c1cccc(Cl)c1	-1%
COCc1ccc(CN2CCCC(C(=O)Nc3cccc(-n4cccn4)c3)C2)o1 (configuration not stated)	9%
O=C(Cn1c(=O)oc2ccccc21)N1CC2CC(C1)[C@H]1CCCC(=O)N1C2 (some centres not stated)	6%
Cc1occc1C(=O)N1CC[C@@H]2CN(S(C)(=O)=O)[C@@H]2C1	7%
Fc1cccc(-c2cnc(Nc3cccnc3)c3c2CCO3)c1	5%[70.6 µM]
Cc1ccc(CN2C(=O)COC[C@H]2C(=O)NCc2ccco2)cc1	2%
CCOC(=O)Cc1csc(NC(=O)C2CC(=O)N(c3n[nH]c4cccc(F)c34)C2)n1 (configuration not stated)	-7%
CN(C)c1nc2c(c(=O)[nH]1)CCN(Cc1ccc(F)cc1F)CC2	-1%
COc1ccc(C(=O)N2CCCn3ccnc3C2c2cnn(C)c2)cn1 (configuration not stated)	-4%
NC(=O)CN1CCC(C(=O)NCc2cc(-c3ccc(Cl)cc3)on2)CC1	-6%
Cc1ccc2nc(CO[C@H]3CN(Cc4cn(C)c5ccccc45)C[C@H]3F)[nH]c2c1	?
CS(=O)(=O)N1CCC(NC(=O)CCc2cc3n(n2)CCCNC3)CC1	11%
CCN1C(=O)C2(CCN(S(=O)(=O)c3ccc(C)cc3)CC2)c2ccccc21	-1%
CC(=O)N1CC[C@H]2COC(=O)N2c2cc(C)ccc2C1	0%[70.6 µM]
Clc1ccc2oc([C@H]3CCN(Cc4ccccn4)C3)nc2c1	-20%[70.6 µM]
CCn1cnnc1-c1nn(C)c2c1CN(C(=O)c1n[nH]c(=O)c3ccccc13)CC2	-8%
Cc1cccc(-c2[nH]ncc2CNC(=O)c2cccc(N(C)C)c2)c1	-20%
O=C1CC(c2ccccc2)N(C(=O)CNC(=O)c2cc3ccccc3[nH]2)CCCCCN1 (configuration not stated)	-12%
FC1(F)CN[C@H](c2nc(-c3ncccn3)no2)C1	-1%
COc1ccc(CN2CCc3nn(C)c(=O)n3CC2)cc1Cn1cccn1	-3%
Cn1nccc1C(=O)N1CCC(Oc2nccnc2N2CCOCC2)C1 (configuration not stated)	12%
Cc1cccc(CN2CCCCCNC(=O)CC2c2ccccc2)c1 (configuration not stated)	-17%
Cc1ccccc1C(CC(=O)NCc1cccnc1)c1ccccc1 (configuration not stated)	-16%
O=C(Nc1ccncc1)c1ccnc(-c2nnc3ccc(N4CCOCC4)nn23)c1	4%[70.6 µM]
COc1ccc([C@@H](NC(=O)c2ccc3ncsc3c2)C2CC(O)C2)cn1 (some centres not stated)	6%
CNc1ncc(CN(C)C(=O)CCc2cc3n(n2)CCCNC3)cn1	-2%
O=C(NCC1CCCCC1)c1ccc(CN2C(=O)NC3(CCS(=O)(=O)CC3)C2=O)cc1	1%
CCN1c2cc(C(=O)Nc3ccc(C)c(F)c3)ccc2C(=O)N2CCCCC21 (configuration not stated)	0%
Fc1ccc(CN2Cc3[nH]cnc3C[C@H]2c2nc(-c3ccc(Cl)cc3)no2)cc1	-20%[70.6 µM]
CN1CCc2c([nH]c3ccccc23)C12CCN(C(=O)C1CCC1)CC2	-1%
COc1ccc(S(=O)(=O)N2CCCC2c2nncn2Cc2ccncc2)cc1OC (configuration not stated)	1%
O=S(=O)(c1cccnc1)N1CC(c2noc(C3CCCN3CC3CC3)n2)C1 (configuration not stated)	1%
CN(c1ccccc1)c1cc(=O)c2ccnc(Nc3cccc([S+](C)(=O)[O-])c3)c2o1	-11%[70.6 µM]
CN(CCC(O)c1ccccc1)C(=O)c1coc(Cn2cnc3ccccc32)n1 (configuration not stated)	14%
CC(=O)N1CCC(NC[C@@H]2C=C(C)[C@H](Cc3nc4ccc(F)cc4[nH]3)C[C@H]2C(C)C)CC1	-2%
O=S(=O)(c1ccccc1F)N1CC(c2nnc(-c3ccncc3)o2)C2(CCOCC2)C1 (configuration not stated)	-13%
CC1CCN(C(=O)C[C@@H]2c3nc(NC(=O)c4ccnc(Cl)c4)sc3C[C@@H]3[C@](C)(CO)[C@H](O)CC[C@]32C)CC1	-12%
O=C(Nc1ccccc1F)N1CCOC(c2ccc(Cl)cc2)C1 (configuration not stated)	-2%
O=C(NC1CCN(c2cc(-c3cccs3)[nH]n2)CC1)c1ccccc1	-21%
Cc1ccc(C(=O)N2CCC3(CC2)COc2ccccc2NC3=O)cc1	0%
CC(C)(C)CC(=O)Nc1nc2c(s1)C[C@@H]1[C@](C)(CO)[C@H](O)CC[C@@]1(C)[C@@H]2CC(=O)NCc1ccco1	3%
COc1ccc(-c2cn(C)c(=O)n3cc(COc4ccccc4)nc23)c(C(F)(F)F)c1	-19%[70.6 µM]
COc1ccc(CN2CC[C@H](c3nnc(-c4cccnc4)o3)C2)c(O)c1	3%[70.6 µM]
O=C(N[C@@H]1CN(Cc2ccccc2)C[C@H]1CO)c1ccco1	0%
Cc1ccc(C(=O)NC2CCN(c3cnn(CC4CC4)c(=O)c3)CC2)s1	2%
O=C1CO[C@H](c2ccc(NS(=O)(=O)c3ccccc3)cc2)[C@@H](CO)N1	5%[70.6 µM]
CC(C)NC(=O)N1CCC2(CC1)NCCc1c2[nH]c2ccccc12	-1%
Cc1ccc(C(=O)N2CCC(c3nn(C)c(=O)[nH]3)CC2)cc1	34%[activator][70.6 µM]
Cc1cnc(CCNS(=O)(=O)c2cn(C)cn2)n1C1CC1	0%

More structures follow:
SMILES	hNpr1 antagonist
COc1ccccc1CN1CC(c2noc(CCC(=O)c3ccc(C)cc3)n2)CC1=O (configuration not stated)	-21%
O=C(Cc1ccccc1)N1CCC(N2CC(OCC3CC3)C23CCOCC3)CC1 (configuration not stated)	5%
COc1ccc(-c2ccc3nnc(CNC(=O)c4ccc(C)cc4C)n3n2)cc1	-1%
O=C(NC1CCCN(c2cc(-c3ccc(F)cc3)[nH]n2)C1)c1ccc(F)c(F)c1 (configuration not stated)	-28%
CC(=O)N1CC(CO)C2(CCN(C(=O)c3cccc(Br)c3)CC2)C1 (configuration not stated)	0%
CCOC(=O)c1cccc(NC(=O)N2CC[C@@H](CC(=O)NCc3ccc(OC)cc3)[C@@H](CC)C2)c1	4%
CCOCC1(C)COc2ccc(C(=O)N(C)Cc3ccccc3)cc2N1 (configuration not stated)	3%[70.6 µM]
CN1CC(=O)N(C2CCC2)Cc2c(NCCO)ncnc21	2%[70.6 µM]
CS(=O)(=O)N1CCN2C(=O)N(C3CCCCC3)C[C@H]2C1	-2%[70.6 µM]
CCCC1=Nc2cc(C(=O)NCCc3ccc(OC)c(OC)c3)ccc2Sc2ccc(C)cc21	-12%
Cc1ccc(NC(=O)N[C@@H]2C=C(C(=O)NCC(N)=O)C[C@@H](O)[C@@H]2O)cc1	8%[70.6 µM]
CSCc1ccc(C(=O)N[C@H]2[C@@H]3CCO[C@@H]3[C@@H]2C2CCCC2)o1	3%
CC(C)NC(=O)NC[C@H]1OC[C@@H](NC2CCCC2)[C@@H]1O	4%[70.6 µM]
CCOc1ccc2c(n1)CCN(C(=O)NC1CCCC1)C2	0%
COc1cccc(CN2CCOCCNC(=O)CC2)c1	-2%

Retrieved by compound from the list above, five records:
SMILES	hNpr1 antagonist
Cc1ccccc1C(CC(=O)NCc1cccnc1)c1ccccc1 (configuration not stated)	-16%
O=S(=O)(c1cccnc1)N1CC(c2noc(C3CCCN3CC3CC3)n2)C1 (configuration not stated)	1%
CN(C)C[C@@H]1CN(C2CCOCC2)C[C@H]1NC(=O)c1cccc(Cl)c1	-1%
O=C(NC1CCCN(c2cc(-c3ccc(F)cc3)[nH]n2)C1)c1ccc(F)c(F)c1 (configuration not stated)	-28%
Cc1ccc(C(=O)N2CCC(c3nn(C)c(=O)[nH]3)CC2)cc1	34%[activator][70.6 µM]

The main list resumes, starting 5 compounds before the break.
SMILES	hNpr1 antagonist
Cc1ccc(NC(=O)N[C@@H]2C=C(C(=O)NCC(N)=O)C[C@@H](O)[C@@H]2O)cc1	8%[70.6 µM]
CSCc1ccc(C(=O)N[C@H]2[C@@H]3CCO[C@@H]3[C@@H]2C2CCCC2)o1	3%
CC(C)NC(=O)NC[C@H]1OC[C@@H](NC2CCCC2)[C@@H]1O	4%[70.6 µM]
CCOc1ccc2c(n1)CCN(C(=O)NC1CCCC1)C2	0%
COc1cccc(CN2CCOCCNC(=O)CC2)c1	-2%
Cc1ccc(C(=O)N2CCC(Cn3c(C)cnc3C3CCC3)CC2)cn1	3%
C[C@H]1[C@@H]2[C@@H](O)C([C@H](C)C(=O)NCc3ccc(F)cc3)CC[C@@]2(C)CC[C@@H]1NC(=O)Cc1ccccc1 (some centres not stated)	3%
OC(c1ccccc1)c1nc(Nc2ccc(Cl)cc2F)n[nH]1 (configuration not stated)	-10%[70.6 µM]
Cc1ccc(C(=O)N(C)CC2(C)CCOCC2)s1	2%
COc1ccc(-c2ccc3ncc(Nc4ccnc(N5CCOCC5)c4)n3n2)cc1OC	3%[70.6 µM]
Cc1cnc(C2CCN(C(=O)C3CCCC3)C2)n1Cc1ccccc1 (configuration not stated)	-20%
CCCc1ncncc1C(=O)NC1CC(c2nnc(CO)n2C2CC2)C1 (configuration not stated)	3%
Cc1ccc(C(=O)N2CCC3(CC2)CC(c2ccccc2)C(=O)N3C)s1 (configuration not stated)	3%
CC(C)c1ccc(S(=O)(=O)N2CCC3(CCCNC3)C2)cc1 (configuration not stated)	8%
CC(C)(C)n1nnnc1C1CC2(CCOCC2)C(=O)N1Cc1cccc(C(F)(F)F)c1 (configuration not stated)	-10%
O=C(Cc1ccccn1)N1CCn2c(nnc2-c2ccccc2)C1	2%[70.6 µM]
CCN1CCN(C(=O)C2CCc3nc(N4CCN(C(=O)C5CCC5)CC4)sc3C2)CC1 (configuration not stated)	-2%
COCCN1C(=O)CS(=O)(=O)C12CCN(C(=O)COc1cccc(C)c1)CC2	0%
NC(=O)CN1CCC(C(=O)NCCCn2ncc3ccccc32)CC1	1%
CN1c2cc(C(=O)NCc3nc4ccccc4n3C)ccc2C(=O)N2CCCCCC21 (configuration not stated)	-5%
COc1ccc(F)cc1S(=O)(=O)N1CCC(CC(=O)NCc2ccccc2)C1 (configuration not stated)	0%
O=C1CCN(S(=O)(=O)c2ccccc2)CCCC(C(=O)NCc2cccnc2)CCN1 (configuration not stated)	-4%
COCC(=O)N1CCCC(c2nn(-c3ccc(OC)cc3)c(=O)[nH]2)C1 (configuration not stated)	21%[70.6 µM]
CC1(CNC(=O)c2n[nH]c3ccccc23)CCOCC1	4%
O=C1CCC2(CCCO2)CCN1Cc1ccccc1F (configuration not stated)	4%
O=C(c1ccccc1)N1CCC(c2nn(-c3ccccc3)c(=O)[nH]2)CC1	-3%
O=C1Cc2c(-c3ccsc3)n[nH]c2CN1Cc1ccccc1	-1%[70.6 µM]
COc1ccccc1-c1noc(CCc2nc(-c3ccc(C)nn3)no2)n1	3%
O=C(C[C@H]1NC(=O)c2ccccc2NC1=O)Nc1nc(-c2ccncc2)cs1	3%
Cc1ccc(NC(=O)Cn2nc3c(cc2=O)CCCCC3)cc1C	-1%
CN(C)C(=O)C1CCCN(c2nc3ncccc3o2)C1 (configuration not stated)	0%[70.6 µM]
COC[C@@H]1CN(C(=O)c2ncccc2C)C[C@H]1c1nc(C2CC2)no1	2%
Fc1ccc(CN2CC[C@H](c3nnc(Cc4ccccc4)o3)C2)cc1F	0%[70.6 µM]
CC(C)NC(=O)c1ccccc1OCC1CCCN(Cc2cccnc2)C1 (configuration not stated)	1%
Cc1nnc([C@H]2CCN(Cc3cnc4ccccc4c3)C2)o1	1%[70.6 µM]
O=C(NCCc1noc(C(F)(F)F)n1)[C@H]1CCC[C@H](O)C1	6%
O=C(NCCc1ccc(Cl)cc1)C1CN(c2cccc(Cl)c2)C(=O)N1 (configuration not stated)	8%&19%
COCCOCc1nc(C2CCCN2C(=O)Cc2cccc(F)c2)no1 (configuration not stated)	-1%
O=C(NCc1ccco1)c1ccc(CN2C(=O)NC3(CCS(=O)(=O)CC3)C2=O)cc1	-6%
O=C(CCC[C@H]1NC[C@@H]2C[C@H]1CN(Cc1ccccc1)C2)NCCN1CCCCC1	-2%
O=C1Nc2ccccc2CC12CCN2Cc1ccsc1 (configuration not stated)	-2%[70.6 µM]
O=C(CN1C(=O)NC2(CCS(=O)(=O)CC2)C1=O)Nc1ccc(Cl)cc1F	-1%
CS(=O)(=O)N1CCCN(C(=O)C2(c3ccccc3)CC2)c2ccccc21	1%
O=C(c1ccc2nc(-c3ccccc3)cn2c1)N1CCOC(C(F)(F)F)C1 (configuration not stated)	0%
